Assay outcomes: PubChem BioAssay, several laboratories
ALR H2O2 inh = blocks human ALR sulfhydryl oxidase activity | inhibition, % (test concentration not listed) | purified ALR, DTT oxidation, H2O2 HRP-luminol luminescence | P55789 | hit rate 3.8% among 290,000;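 active = mean and each replicate at 75% or more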;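 note: stock transfer was 7.5 nL into about 7.5 µL; 0% = neutral wells and 100% = wells with inactivated enzyme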
HNF4A DNA FP = change in binding of human HNF4 alpha to DNA. P41235. HNF4a-FITC DNA binding, fluorescence polarization, 1 h. activity change, % at 10 µM. hit rate 0.3% among 360,000. AID 1224865; in the data active = activity change above about 30%, passing the limit was not always enough;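 note: controls were the assay level and a saturating level of protein; the project sought stronger binding though the title names inhibitors; some compounds called inactive have numbers as strong as hits; positive values seem to mean higher polarization but the record does not say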
Target sequence (P41235 whole entry, looked up): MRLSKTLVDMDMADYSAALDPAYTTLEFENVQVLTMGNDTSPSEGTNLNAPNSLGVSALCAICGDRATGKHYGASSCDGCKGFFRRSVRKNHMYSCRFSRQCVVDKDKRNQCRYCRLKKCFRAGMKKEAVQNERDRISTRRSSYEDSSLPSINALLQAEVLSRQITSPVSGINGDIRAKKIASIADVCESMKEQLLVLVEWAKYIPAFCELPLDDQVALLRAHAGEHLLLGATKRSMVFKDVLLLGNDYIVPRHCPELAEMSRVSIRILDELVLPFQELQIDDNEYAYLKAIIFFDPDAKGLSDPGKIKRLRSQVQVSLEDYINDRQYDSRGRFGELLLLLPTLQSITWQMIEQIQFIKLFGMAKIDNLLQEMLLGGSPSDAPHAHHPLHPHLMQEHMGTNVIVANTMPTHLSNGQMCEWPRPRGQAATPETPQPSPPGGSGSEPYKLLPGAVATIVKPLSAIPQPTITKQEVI
UCH37 inh = human UCH37 deubiquitinating enzyme inhibition. Q9Y5K5. purified proteasome/UCH37, Ub-AMC cleavage fluorescence. inhibition, % (no concentration beside the values). hit rate 0.33% among 330,000;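 active = mean of two replicates above 20%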;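 note: 0% = compound-free wells with enzyme and 100% = wells lacking proteasome; stock transfer was 100 nL into about 20 µL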
Target sequence (Q9Y5K5 whole entry, looked up): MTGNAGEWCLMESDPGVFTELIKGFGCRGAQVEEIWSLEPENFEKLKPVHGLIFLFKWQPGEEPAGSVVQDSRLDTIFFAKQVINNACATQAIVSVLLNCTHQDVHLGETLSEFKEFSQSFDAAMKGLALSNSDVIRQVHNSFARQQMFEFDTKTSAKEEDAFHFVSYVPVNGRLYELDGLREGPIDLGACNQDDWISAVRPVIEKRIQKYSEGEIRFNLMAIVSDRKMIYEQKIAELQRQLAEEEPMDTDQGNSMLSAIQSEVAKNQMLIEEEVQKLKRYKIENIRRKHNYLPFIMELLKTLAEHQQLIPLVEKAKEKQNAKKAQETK
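Material: Human UCH37 enzyme supplied as purified proteasome complex | Schedule: 30 min compound-proteasome preincubation then 25 min substrate reaction, room temperature | Detection: AMC fluorescence from Ub-AMC cleavage, excitation 355 nm, emission 460 nm | Benchmarks: Wells without proteasome as full block, compound-free enzyme plus substrate as uninhibited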
Beta2AR agonist = human beta-2 adrenergic receptor agonism by FAP; Am2.2-beta2AR cells, FAP receptor internalization, flow cytometry; reference of the scale not given here; P07550; hit rate 0.43% among 340,000; response, % (test concentration not listed);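 active = response above a set limit, near 3 SD of response in nonfluorescent compounds, cut at about 42% in these data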;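 note: stock transfer was 100 nL into about 11 µL; a reference agonist was the positive control; negative values mostly stem from fluorescent compounds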
Ecoli growth = inhibitors of Escherichia coli growth | OD600, 23 h; active compounds read low | OD600 absorbance (test concentration not listed) | hit rate 0.21% among 330,000;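 active = OD600 absorbance below the run mean of sample wells minus 3.6 SD, in any replicate, cut at about 0.56 in these data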;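 note: stock transfer was 300 nL into about 60 µL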
rRNA inh HTS = selective bacterial rRNA inhibition in E. coli; GFP signal change (wild-type ribosome), % (concentration not given with the values); E. coli WT GFP vs humanized-ribosome RFP mutants, fluorescence, 24 h; active compounds read low; DMSO median 0, no signal -100; hit rate 1.6% among 350,000; AID 720706;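 active = significant combined selectivity score with lowered wild-type GFP, culture density cut under 30%, mutant RFP and density less affected; inactive = any of these conditions unmet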; note: one replicate is shown; some compounds called inactive have numbers as strong as hits
FGF22 binding = shifts melting point of recombinant human FGF22; Q9HCT0; AID 651658; recombinant FGF22 thermal shift, SYPRO orange fluorescence; percent of sucrose octasulfate shift, DMSO zero; hit rate 1.5% among 340,000; calls only at 9.99 µM;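 active = melting point raised past a set limit in the mean and every replicate; three in four hits are not shown here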
Target sequence (Q9HCT0 whole entry, looked up): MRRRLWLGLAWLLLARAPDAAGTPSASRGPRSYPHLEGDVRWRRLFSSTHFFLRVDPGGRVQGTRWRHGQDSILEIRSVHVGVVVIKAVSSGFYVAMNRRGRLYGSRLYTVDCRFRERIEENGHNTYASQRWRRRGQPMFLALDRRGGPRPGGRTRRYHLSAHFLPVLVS
rRNA inh HTS OD600 = recorded beside rRNA inh HTS, whose call it bears; OD600 change, %; measured here: OD600 growth;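 optical density of the mix in the first replicate; 0 = DMSO median and -100 = no signal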
rRNA inh HTS RFP = further read-out of rRNA inh HTS, marked with its call; RFP signal change, %; measured here: RFP humanized mutant strains;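 first replicate; 0 = DMSO median and -100 = no signal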
* marks the source's active call; other numbers are inactive results; i = inactive; . = no result given; + = active, no number; & = joins results of further samples. A portion of the library; the hit share may differ from the screen's.

Start of the data: the first 3 records as a preview:
Molecule,FGF22 binding,Ecoli growth,rRNA inh HTS,HNF4A DNA FP,UCH37 inh,Beta2AR agonist,ALR H2O2 inh,rRNA inh HTS RFP,rRNA inh HTS OD600
O=C(c1cc(-c2ccccc2O)on1)N1CCc2ccccc2C1,i,0.75,-5,-2.3,3.6,-3,62,0.8,0
CC(C)CN(C(=O)COC(=O)C12CC3CC(CC(O)(C3)C1)C2)C1CCS(=O)(=O)C1 (stereo unspecified),.,0.67,.,1.4,-0.3,-1,-11,.,.
CC(CNC(=O)Cn1cnc2c(NCc3ccccc3)ncnc21)c1ccccc1 (stereo unspecified),i,0.72,15,2.3,-1.5,5,.,6.6,11

Results (from the top)
Molecule,FGF22 binding,Ecoli growth,rRNA inh HTS,HNF4A DNA FP,UCH37 inh,Beta2AR agonist,ALR H2O2 inh,rRNA inh HTS RFP,rRNA inh HTS OD600
O=C(c1cc(-c2ccccc2O)on1)N1CCc2ccccc2C1,i,0.75,-5,-2.3,3.6,-3,62,0.8,0
CC(C)CN(C(=O)COC(=O)C12CC3CC(CC(O)(C3)C1)C2)C1CCS(=O)(=O)C1 (stereo unspecified),.,0.67,.,1.4,-0.3,-1,-11,.,.
CC(CNC(=O)Cn1cnc2c(NCc3ccccc3)ncnc21)c1ccccc1 (stereo unspecified),i,0.72,15,2.3,-1.5,5,.,6.6,11
Cc1ccc(S(=O)(=O)N(C)C[C@@H]2Oc3ncc(C#CCC(C)C)cc3C(=O)N([C@H](C)CO)C[C@H]2C)cc1,i,.,1&-3,-4.4,.,.,.,7.7&0.5,-1&-4
CCOc1ccc(N2CC(C(=O)Nc3cccc(S(=O)(=O)N4CCCC4)c3)CC2=O)cc1 (stereo unspecified),i,0.62,3,1.8,2.2,7,-4,0.5,-13
COC(=O)C1=C(C)NC(=O)/C1=C\c1cc(C)n(-c2ccc(F)cc2)c1C,i,0.7,.,-2.0,-1.4,11,-33,.,.
COc1ccccc1N1C(C)=CC(=C(C#N)c2nc3ccccc3s2)C=C1C,i,0.69,-7,-1.3,1.1,10,-9,8.9,3
COc1ccc(C(=O)CSc2nnc(COc3ccccc3)n2Cc2ccco2)cc1,.,0.67,.,1.9,0.3,-5,13,.,.
CN(C)CCCNC(=O)c1cc(C(=O)Cc2ccc(Cl)cc2)c[nH]1,i,0.65,25,1.3,5.7,-3,-16,5.4,23
Cc1ccc(NC(=O)OCCN2CCN(Cc3ccccc3)CCC2=O)cc1C,i,0.64,-3,-2.3,-0.9,-1,1,2.4,-4
Cc1[nH]c2ccccc2c1C(=O)COC(=O)c1ccc[n+]([O-])c1,i,0.68,-2,7.4,3.6,-11,13,-2.3,1
COc1ccccc1CNC(=O)CCc1ccccc1,i,0.68,-3,3.6,3.0,-3,23,-3.7,-3
CN1CCN(S(=O)(=O)c2ccc(NC(=O)c3csc4ccccc34)cc2)CC1,i,0.66,-41,-1.6,5.2,18,.,-9.4,-44
CC1CCN(CCCn2c(=S)[nH]c3c(sc4ccc([N+](=O)[O-])cc43)c2=O)CC1,i,0.73,10,-3.9,7.8,1,.,1.8,5
CCOC(=O)C1CCN(C(=O)c2ccc(OC)cc2OC)CC1,.,0.65,.,3.5,2.1,11,0,.,.
COc1ccc(Cl)cc1C(=O)CSc1nnnn1C,i,0.61,0,-2.3,-0.4,-15,20,-0.7,-7
CC(=O)Nc1ccc(CN2CCc3c([nH]c4ccccc34)C2c2ccccn2)cc1 (stereo unspecified),.,0.71,.,-2.5,4.5,-1,-18,.,.
Cc1onc(-c2c(Cl)cccc2Cl)c1C(N)=O,.,0.66,.,2.9,5.7,0,-26,.,.
O=C(CO/N=C/c1c(Cl)cccc1Cl)NNC(=O)c1ccc(Cl)cc1,i,.,0,-0.6,.,-1,1,-2.6,4
c1ccc(CSc2nnc(NC3=NCCCCC3)s2)cc1,.,0.72,.,-3.9,1.5,-5,9,.,.
CCN(CC)S(=O)(=O)c1ccc(OC)nc1,.,0.72,.,-2.7,-2.6,-4,-1,.,.
Oc1ccc(Br)cc1CNc1ccccn1,i,0.65,-16*,3.5,2.7,-2,17,5.7*,1.2*
COc1ccc(OC2CCN(S(=O)(=O)c3cccc(F)c3)CC2)cc1,i,0.62,-11,-3.5,2.3,19,2,1.7,-14
CC(C)C[C@@H](CSc1ccccc1)N1CCN(CCc2ccccc2)CCC1=O,i,.,-46,-5.2,0.0,-7,-3,-26,-74
O=C(CNc1cc(S(=O)(=O)N2CCOCC2)ccc1NCC1CCCO1)Nc1ccc(C(F)(F)F)cc1 (stereo unspecified),i,0.58,-16,-4.0,2.8,0,-4,5.9,-21
CNCc1cc(Cl)cc(OC)c1OC(C)C,i,0.69,9,-1.9,1.1,-6,.,-1.3,5
COc1ccc(NC(=O)Cn2ccc(C(F)(F)F)n2)cc1S(=O)(=O)N1CCOCC1,i,0.7,9,1.8,-1.5,-5,-2,2.5,10
CC1CCCN(C(=O)CSc2nnc(-c3ccncc3)n2C)C1 (stereo unspecified),i,0.65,14,-2.9,0.1,-1,-3,-6.3,1
NS(=O)(=O)c1ccc(CNC(=O)/C=C/c2cccc(Cl)c2)cc1,.,0.7,.,-3.3,1.9,-2,45,.,.
CCOC(=O)c1cccc(NC(=O)CCS(=O)(=O)c2ccc(Br)s2)c1,.,0.71,.,1.4,-3.0,4,-7,.,.
Oc1c(Cl)cc(Cl)cc1CNc1nccs1,i,0.65,-35,6.0,3.4,2,15,1.4,-44
CCc1nc2ccccc2c(C(=O)OCc2nc3ccccc3c(=O)[nH]2)c1C,i,0.66,-13,-0.9,-1.1,2,13,-4.3,-26
COc1ccccc1NC(=O)CSc1nc2nccnc2c(=O)n1Cc1cccs1,i,0.77,-3,2.2,1.1,3,96*,8.2,0
CSCCCNC(=S)N(C)CC(=O)Nc1ccc(C)cc1,i,0.75,13,-0.6,3.1,-5,2,-2.2,9
COC(=O)c1ccc(OC)c(CSc2nnc(COc3ccccc3)o2)c1,.,0.71,-12,-5.0,2.4,-5,-16,-7.7,-40
Cc1ccccc1-c1nc(CS(=O)(=O)CC(=O)NC2CC2)c(C)o1,i,0.63,-2,-2.1,0.6,0,2,0.4,-3
COCCCn1c(SCC(=O)NNC(=O)c2cccc(O)c2)nnc1-c1ccncc1,i,0.69,7,0.3,0.7,3,-2,-3.0,-4
COC(=O)CSc1nnc(CNC(=O)c2ccccc2OC)n1C,.,0.69,.,-0.1,2.6,3,-1,.,.
O=C(CCCCCN1C(=O)c2ccccc2C1=O)NCc1ccccn1,.,0.75,.,0.0,-0.7,-3,-3,.,.
CC(C)CC(=O)Nc1ccc(C(=O)Cn2nc(C(=O)O)c3ccccc3c2=O)cc1,.,0.74,.,0.5,0.3,10,8,.,.
CC(C)=CC(=O)OCC(=O)Nc1ccc(Cl)cc1,i,0.67,6,1.0,0.1,-1,-2,4.2,11
COc1ccc(C(=O)NNS(=O)(=O)c2ccccc2)cc1,i,0.68,-21,2.4,5.7,2,.,-9.0,-30
O=C(OCC(=O)N1CCN(c2ccccc2)CC1)c1cccc([N+](=O)[O-])c1,i,0.68,-3,1.5,2.6,-19,12,-7.7,3
COc1ccccc1C(=O)NCCC(=O)N(C)Cc1ccc(C)o1,i,0.7,-5,2.0,0.8,-2,6,-4.3,4
C1CCN(CCCNC2C3CC4CC(C3)CC2C4)C1 (stereo unspecified),i,0.68,11,5.7,0.7,1,23,-1.9,1
CC(=O)Oc1ccc(/C=C(\NC(=O)c2ccco2)C(=O)NCc2ccco2)cc1,i,0.64,6,-0.3,3.1,3,23,2.6,5
Cc1cc(=O)oc2c(CN3CC(C)OC(C)C3)c(O)c(Cl)cc12 (stereo unspecified),i,0.75,18,-5.8,i,0,-1,2.0,9
O=C1NC(=Nc2ccc(Cl)cc2)SC1Cc1cc(Cl)ccc1Cl (stereo unspecified),.,0.69,.,3.4,3.9,-8,9,.,.
O=C(CSc1nnc(NC(=O)c2cccc(F)c2)s1)NCC1CCCO1 (stereo unspecified),i,0.69,2,1.6,7.9,2,-13,-3.2,-8
CC[C@H]1O[C@H](C)CC2=C1C(=O)OC(C)(C)O2,i,.,37,0.2,.,.,.,5.3,30

The list goes on:
Molecule,FGF22 binding,Ecoli growth,rRNA inh HTS,HNF4A DNA FP,UCH37 inh,Beta2AR agonist,ALR H2O2 inh,rRNA inh HTS RFP,rRNA inh HTS OD600
CC(=O)/C(=N/Nc1ccccc1)Sc1nnc(CCc2ccccc2)n1-c1ccccc1,i,.,-12,2.3,.,-10,13,-1.0,-24
c1ccc(-c2nc(-c3ccco3)n3ccccc23)cc1,i,0.71,14,-21,-109,-34,94*,8.0,9
Cn1c(=O)c2sccc2n2c(CCCC(=O)NCc3ccco3)nnc12,i,0.68,4,-2.3,1.0,-3,-4,0.4,0
c1ccc2c3c([nH]c2c1)CCNC3,i,.,9,-2.1,.,4,3,3.4,17
COc1cc(C(=O)NCCOc2cccc(C)c2)c(Br)c(OC)c1OC,.,0.74,.,0.0,-1.8,-8,0,.,.
COc1cc(CC(=O)NCc2cccs2)cc(OC)c1OC,.,0.7,.,4.3,1.5,6,.,.,.
CC1CCCCN1C(=S)Nc1ccc2nc3n(c(=O)c2c1)CCCCC3 (stereo unspecified),.,0.65,.,-0.1,-0.6,-21,-13,.,.
COc1ccc(O)c(C(=O)CC(=O)c2ccc(F)cc2)c1,.,.,.,2.5,-14,6,.,.,.
CC(=O)c1ccc(N2CCN(C(=S)Nc3ccc(Oc4ccccc4)cc3)CC2)cc1,+,0.73,-10,-5.9,1.3,-1,-9,0.5,-10
COC(=O)[C@H](CCSC)NC(=O)Nc1ccc(OC)cc1,.,0.74,.,-3.3,-6.5,-4,-21,.,.
O=C(NCCN1C(=O)S/C(=C\c2ccc(Cl)cc2)C1=O)c1ccc(F)c(S(=O)(=O)N2CCOCC2)c1,i,0.71,10,1.7,3.2,4,-5,3.4,31
O=C(O)c1ccccc1NS(=O)(=O)c1ccccc1C(F)(F)F,i,0.65,7,2.8,0.2,4,-2,-11,-2
Cc1nnc(NC(=O)Cc2ccc(OCc3c(C)noc3C)cc2)s1,.,0.68,.,3.9,3.4,1,-15,.,.
O=C(O)c1ccccc1N/N=C/C1=C(N2CCOCC2)C(=C\c2ccccc2)/CC1,i,.,3,27,.,9,41,-4.6,-1
O=C(Nc1ccc(F)c([N+](=O)[O-])c1)C(=O)c1c(O)[nH]c2ccccc12,i,0.62,12,2.5,4.2,3,7,2.3,2
Cc1cc(C)cc(N(CC(=O)NC2CCCC2)C(=O)CNC(=O)c2ccco2)c1,i,0.66,1,0.2,4.2,3,3,-0.4,2
COc1cccc(CN2CC(C(=O)N3CCSCC3)CCC2=O)c1 (stereo unspecified),i,.,0,-1.2,.,.,.,-1.0,0
CCCC(NC(=O)C(C)N1CCN(S(=O)(=O)c2ccccc2)CC1)c1ccccc1 (stereo unspecified),i,0.71,-16,-3.0,4.0,-3,-5,2.0,-18
CC1(C)CC(=O)c2c(O)cc(OCC(=O)N3CCN(c4ccccc4)CC3)cc2O1,i,0.72,-28,1.8,2.0,-9,.,-7.1,-71
COC(=O)c1cc(NC(=O)CC2NC3CCCCC3NC2=O)cc(C(=O)OC)c1 (stereo unspecified),.,0.73,.,4.4,6.0,2,3,.,.
CC(=O)Nc1cccc(C(=O)OCC(=O)N(c2ccccc2)C2CCS(=O)(=O)C2)c1 (stereo unspecified),i,0.61,11,-0.8,-0.5,-1,.,-2.0,9
